# From PubChem
# T cruzi repl: inhibitors of intracellular T. cruzi growth, primary screen, luminescence, NIH3T3 host cells; T. cruzi beta-gal in NIH3T3, 90 h; inhibition, % (test concentration not listed); hit rate 1.4% among 300,000;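 active = mean inhibition across valid replicates above about 55%, limit read from the data; inconclusive = mean below that limit but half or more replicates reach it; inactive = mean below it, under half of replicates reach it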;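 also: signal also drops with host cell toxicity which is not excluded here; 0% = plate median of DMSO wells and 100% = zero luminescence signal; higher percent means less beta-gal luminescence so fewer parasites; stock transfer was 50 nL into about 50 µL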
# Ecoli rRNA inh: reduced GFP signal of wild-type E. coli, primary screen, bacterial rRNA inhibitor project, GFP/RFP fluorescence, OD600, single point; E. coli WT GFP vs humanized-ribosome RFP mutants, 24 h; active compounds read low; DMSO median 0, no signal -100; GFP signal change (wild-type ribosome), % (concentration not given with the values); hit rate 1.6% among 350,000; AID 720706, 2013;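 active = significant combined selectivity score with lowered wild-type GFP, culture density cut under 30%, mutant RFP and density less affected; inactive = any of these conditions unmet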; also: one replicate is shown; some compounds called inactive have numbers as strong as hits
# RanGTP-Imp inh: inhibitors of RanGTP-importin-beta interaction, primary screen, biochemical, FRET, CFP-Ran, YFP-importin-beta, homogeneous; cell-free CFP-Ran/YFP-importin-beta FRET ratio; inhibition, % (no concentration beside the values); hit rate 1.1% among 300,000; AID 2216, 2009;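 active = most replicates above 15%; inconclusive = exactly half above 15%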;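 also: 0% = DMSO wells and 100% = Ran loaded with GDP instead of GTP; wells of about 40 µL received 100 nL stock; the first replicate is given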
# Beta cell apopt: inhibitors of cytokine-induced beta cell apoptosis, primary screen, luminescence; INS-1E cytokine-induced death, ATP luminescence, 48 h; percent of positive-control rescue, neutral wells zero; protection from apoptosis, % (test concentration not listed); hit rate 0.8% among 300,000; AID 435005, 2010;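 active = all replicates at 75% or more, or half of them and the mean; inconclusive = half reach 75% but not the mean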;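 also: 0% = cytokine-treated negative control wells and 100% = positive control rescue; higher means more ATP so stronger rescue from cytokine killing; wells of about 40 µL received 100 nL stock; the first replicate is given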
# FGF22 binding: binders of human FGF22 protein, primary screen, FGF22 synaptogenesis inhibitor project, biophysical, thermal shift, single point. Fibroblast growth factor 22 (Homo sapiens), Q9HCT0. recombinant FGF22 thermal shift, SYPRO orange fluorescence; percent of sucrose octasulfate shift, DMSO zero. calls only at 9.99 µM. hit rate 1.5% among 340,000. AID 651658, 2012;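 active = melting point raised past a set limit in the mean and every replicate; inconclusive = no clear call; three in four hits are not shown here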
# Target sequence (Q9HCT0 whole entry, looked up): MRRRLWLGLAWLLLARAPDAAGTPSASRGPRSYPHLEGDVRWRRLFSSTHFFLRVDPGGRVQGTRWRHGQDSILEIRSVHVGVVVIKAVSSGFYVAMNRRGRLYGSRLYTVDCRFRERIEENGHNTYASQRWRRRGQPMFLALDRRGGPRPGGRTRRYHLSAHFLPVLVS
# AF4-AF9 inh: inhibitors of AF4 peptide binding to AF9, primary screen, biochemical, AlphaScreen, biotin-AF4 peptide, FLAG-AF9, single point | inhibition, % at 10 µM | hit rate 0.47% among 350,000;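 active = every replicate reaching a set inhibition limit, whatever the replicate mean, cut at about 25% in these data; inconclusive = mean inhibition reaches that limit but some replicates miss it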;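 also: 0% = plate neutral control median and 100% = total signal loss; the record names both 10 and 1 µM as test concentration; the first replicate is given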
# Target sequence (P42568 whole entry, looked up): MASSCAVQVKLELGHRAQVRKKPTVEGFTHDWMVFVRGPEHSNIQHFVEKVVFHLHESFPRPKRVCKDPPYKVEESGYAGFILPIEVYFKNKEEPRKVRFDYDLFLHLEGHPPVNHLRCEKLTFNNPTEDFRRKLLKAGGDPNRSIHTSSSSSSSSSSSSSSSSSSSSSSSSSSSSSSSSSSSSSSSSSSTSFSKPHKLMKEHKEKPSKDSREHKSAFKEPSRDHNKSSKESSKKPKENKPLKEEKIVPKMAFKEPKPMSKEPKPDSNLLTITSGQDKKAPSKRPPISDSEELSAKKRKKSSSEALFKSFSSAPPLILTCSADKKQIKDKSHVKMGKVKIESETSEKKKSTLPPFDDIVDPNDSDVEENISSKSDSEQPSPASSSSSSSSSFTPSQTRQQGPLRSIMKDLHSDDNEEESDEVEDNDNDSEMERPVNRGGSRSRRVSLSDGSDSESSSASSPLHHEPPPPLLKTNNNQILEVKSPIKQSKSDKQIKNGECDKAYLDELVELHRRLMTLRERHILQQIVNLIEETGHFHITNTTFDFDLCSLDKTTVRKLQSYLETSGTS
# ALR H2O2 inh: inhibitors of human ALR sulfhydryl oxidase, primary screen, biochemical, H2O2 detection, HRP-luminol luminescence, single point; purified ALR, DTT oxidation; inhibition, % (test concentration not listed); hit rate 3.8% among 290,000;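 active = mean and each replicate at 75% or more; inconclusive = only one of the two met; inactive = neither met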;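 also: stock transfer was 7.5 nL into about 7.5 µL; 0% = neutral wells and 100% = wells with inactivated enzyme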
# Target sequence (P55789 whole entry, looked up): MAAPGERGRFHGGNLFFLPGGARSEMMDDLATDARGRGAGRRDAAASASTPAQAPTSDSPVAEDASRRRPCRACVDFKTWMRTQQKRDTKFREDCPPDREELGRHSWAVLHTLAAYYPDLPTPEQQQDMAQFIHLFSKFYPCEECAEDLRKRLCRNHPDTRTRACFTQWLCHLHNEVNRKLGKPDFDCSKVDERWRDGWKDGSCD
# Calb FLC: C. albicans growth inhibition with fluconazole, primary screen, CaCi-2 strain, Alamar Blue fluorescence; growth inhibition, % (test concentration not listed); C. albicans CaCi-2 (fluconazole-resistant clinical isolate) + fluconazole, 48 h; hit rate 0.57% among 300,000;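 active = most replicates above 75%; inconclusive = exactly half above 75%; inactive = most below 75%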;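 also: all wells also contain fluconazole at 8 µg/ml as a sub-toxic cotreatment; 0% = median of DMSO wells and 100% = median of geldanamycin control wells; wells of about 8 µL received 7.5 nL stock; the first replicate is given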
# Ecoli rRNA inh OD600: also measured in Ecoli rRNA inh; calls as there; OD600 change, %; measured here: OD600 growth;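 optical density of the mix in the first replicate; 0 = DMSO median and -100 = no signal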
# Ecoli rRNA inh RFP: further read-out of Ecoli rRNA inh, marked with its call; RFP signal change, %; measured here: RFP humanized mutant strains;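 first replicate; 0 = DMSO median and -100 = no signal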
# * marks the source's active call; other numbers are inactive results; i = inactive; ? = inconclusive; / = no result given.
structure	AF4-AF9 inh	Ecoli rRNA inh OD600	Calb FLC	Beta cell apopt	ALR H2O2 inh	FGF22 binding	T cruzi repl	Ecoli rRNA inh	RanGTP-Imp inh	Ecoli rRNA inh RFP
CCOC(=O)c1sc(Nc2cccc(Cl)c2)nc1C	-4.7	5.0*	-4	4	0	i	18	-23*	3.8	1.7*
COc1ccc(CN2CCc3cc(OC)c(OC)cc3C2)cc1O	-1.4	7	1	-1	11	i	-18	-3	2.3	6.5
CCNc1nc(NC(C)C)nc(N(C#N)Cc2ccccc2)n1	/	/	-22	11	8	/	3	/	3.0	/
Cc1c(CN2CCC(CO)(CC3CCCCO3)CC2)cnn1C (stereo not drawn)	0.4	19	-4	0	-2	i	6	14	0.4	0.7
Cc1ccc(C)c(S(=O)(=O)N2CCN(CC(=O)Nc3ccc4c(c3)OCCO4)CC2)c1	/	/	18	-6	-13	/	-4	/	2.8	/
Cc1cc(OCC(=O)NC(Cc2ccc(Cl)cc2)C(=O)O)c2c(C)cc(=O)oc2c1 (stereo not drawn)	1.8	/	-4	/	-21	i	4	/	?	/
NC(=O)CC(NC(=O)c1ccc(Br)cc1)c1ccc(NCc2ccc(F)cc2)c([N+](=O)[O-])c1 (stereo not drawn)	-2.5	1	-2	-2	3	i	15	4	-8.4	-1.0
CCOC(=O)CNC(=O)C(CO)NC(=O)OCc1ccccc1 (stereo not drawn)	/	/	-5	-4	-5	/	5	/	2.9	/
N#Cc1c(Cl)nc(-c2ccncc2)nc1-c1ccccc1	1.4	4	-4	-3	0	i	-12	5	3.6	-0.6
CCCN(CCC)CCCNc1ccc2nnc(-c3ccc(F)cc3)n2n1	-8.4	-2	-3	-10	/	i	19	-3	2.8	3.1
CCOc1ccc2nc(NC(=O)Cc3cccs3)sc2c1	/	/	5	-2	-7	/	7	/	-0.8	/
COC(=O)CN1C(=O)Nc2ccc(Cl)cc2C1c1ccccc1 (stereo not drawn)	5.6	-11	2	0	0	i	-12	-8	4.9	1.4

# Part of the list above in order of count of non-hydrogen atoms, highest first:
structure	AF4-AF9 inh	Ecoli rRNA inh OD600	Calb FLC	Beta cell apopt	ALR H2O2 inh	FGF22 binding	T cruzi repl	Ecoli rRNA inh	RanGTP-Imp inh	Ecoli rRNA inh RFP
NC(=O)CC(NC(=O)c1ccc(Br)cc1)c1ccc(NCc2ccc(F)cc2)c([N+](=O)[O-])c1 (stereo not drawn)	-2.5	1	-2	-2	3	i	15	4	-8.4	-1.0
Cc1cc(OCC(=O)NC(Cc2ccc(Cl)cc2)C(=O)O)c2c(C)cc(=O)oc2c1 (stereo not drawn)	1.8	/	-4	/	-21	i	4	/	?	/
CCOc1ccc2nc(NC(=O)Cc3cccs3)sc2c1	/	/	5	-2	-7	/	7	/	-0.8	/

# The listing continues:
structure	AF4-AF9 inh	Ecoli rRNA inh OD600	Calb FLC	Beta cell apopt	ALR H2O2 inh	FGF22 binding	T cruzi repl	Ecoli rRNA inh	RanGTP-Imp inh	Ecoli rRNA inh RFP
Cc1ccc(NC(=O)CSc2nnc(C3CCCCC3)n2N)cc1F	/	/	15	8	17	/	9	/	0.1	/
Oc1ccc(/C=N\Nc2nncc(-c3ccccc3)n2)cc1	-4.6	13	-5	0	4	i	-13	-21	1.8	21
O=C(Nc1nnc(-c2ccccc2)s1)c1ccccc1F	-6.0	9	5	1	/	i	-1	5	8.6	-5.8
Nc1cc(=O)[nH]c(SCC(=O)Nc2ccc(Cl)c(Cl)c2)n1	/	/	16	-9	-7	/	0	/	1.9	/
CCOC(=O)C1=C(C)NC(=S)N(C=O)C1c1ccccc1 (stereo not drawn)	0.3	-8	-2	4	0	i	-3	2	-4.1	-2.0
Cc1cc(C)c(S(=O)(=O)NC2CC3CCC2C3)c(C)c1 (stereo not drawn)	-2.5	6	0	5	-13	i	14	11	-1.5	0.6
COCCC(=O)NNS(=O)(=O)c1ccc(Cl)cc1	0.4	3	-2	4	21	i	-16	10	2.1	-1.0
O=C(COc1cccc2cccnc12)N/N=C1\SCC(=O)N1Cc1ccco1	/	/	-4	-6	-6	/	0	/	4.2	/
CN1CCSc2ccc(C(=O)NCc3cccc(Br)c3)cc21	-2.9	-39	-2	-1	27	i	13	3	-0.5	28
COc1ccccc1N/C(N)=N/c1nc(C)cc(C)n1	0.3	-9	-12	5	3	i	5	4	4.2	-5.6
CCCCNS(=O)(=O)c1ccc2nc(SCC(=O)Nc3ccccc3Cl)[nH]c2c1	3.4	-74	12	5	/	i	18	-46	3.2	-22
O=C(COc1ccc(-n2cnnn2)cc1)Nc1ccc(F)cc1	0.6	/	/	3	-3	i	/	/	/	/
Cc1noc2ncnc(Oc3ccc(C(C)(C)C)cc3)c12	-3.4	-5	-3	5	1	i	2	-4	1.6	-20
O=C1COc2ccc(OCc3ccc(F)cc3)cc21	/	/	5	-4	-26	/	0	/	1.6	/
O=C(COc1cccc2ccccc12)NCc1cccnc1	0.0	-11	-5	-2	-11	i	10	-9	-2.2	-3.5
CC1CN(Cc2ccccc2)C(C)CC1O (stereo not drawn)	-4.9	10	-15	-3	-4	i	15	6	1.8	-1.5
CSc1ccc(CCNC(=O)CCc2nnc3ccc(N4CCC5(CC4)OCCO5)nn23)cc1	1.2	-1	4	5	56	i	13	-2	6.8	-3.0
O=C(O)C1CCN(S(=O)(=O)c2ccc(N3CCOCC3)c([N+](=O)[O-])c2)CC1	-0.5	0	-9	/	0	i	-16	-4	1.2	2.4
CC(C)(CNC(=O)c1cccs1)CNC(=O)c1cccs1	/	/	-12	1	-6	/	-3	/	-1.3	/
Cc1ccc2cccc(OCc3ccc(Br)cc3)c2n1	-24	1	-19	2	-2	i	-7	1	1.2	-2.9
Cn1c(=O)c2c(nc(SCCN3CCOCC3)n2Cc2ccccc2)n(C)c1=O	/	/	2	3	-1	/	2	/	0.2	/
CC12COC3(C(=O)Nc4cccnc4)CC1CCC32C (stereo not drawn)	/	/	4	/	4	/	13	/	-0.6	/
CCOC(=O)C1(Cc2ccccc2C(F)(F)F)CCN(CC2CC2)CC1	-0.4	3	15	1	0	i	33	2	1.9	1.8
CC(C)C(=O)N(Cc1cc2ccccc2[nH]c1=O)C(C)C	/	/	-1	0	1	/	-8	/	3.2	/
Cc1c(NC(N)=O)c(=O)n(-c2ccccc2)n1C	-2.6	11	-3	8	-2	i	-12	13	2.0	0.5
COc1ccc(C(=O)NC(C(=O)NCCc2ccc3c(c2)OCCO3)C(C)C)cc1 (stereo not drawn)	-0.5	2	-5	4	-1	i	?	11	-3.0	0.6
CC[C@@H](C)CN1C(=O)N[C@@H](CCc2ccccc2)C(C(C)=O)=C1C	-2.3	19	6	-9	1	i	-12	20	-1.1	-6.5
COC(C/C=C/[C@H](O)[C@@H](C)OCc1ccccc1)OC	5.7	3	4	2	1	i	2	4	5.7	2.1
O=CN1CCN(C(=O)C(=O)c2cn(CC(=O)N3CCCCC3)c3ccccc23)CC1	1.3	6	2	-2	-3	i	-16	10	4.0	2.2
COCCCNC(=S)N(CCCN(C)C)Cc1cc2cc3c(cc2[nH]c1=O)OCCO3	-7.8	6	39	/	-2	i	-3	14	-0.5	0.6
O=C(c1ccc(=O)oc1)N1CCOCC1	/	/	-8	1	1	/	-15	/	-0.3	/
O=C(CN1C(=O)/C(=C\c2ccco2)SC1=S)Nc1ccc(O)cc1C(=O)O	1.1	11	2	0	39	/	-11	6	1.8	20
CC1CN(S(=O)(=O)c2ccc(C(=O)Nc3nnc(-c4ccc5c(c4)CCCC5)o3)cc2)CC(C)O1 (stereo not drawn)	-1.2	-49	3	42	8	i	61*	-42	-0.9	-11
Cc1cc(O)c(C(C)C)cc1NC1=NS(=O)(=O)c2ccccc21	/	/	-2	-21	-31	/	-11	/	-0.1	/
O=S(=O)(c1ccc(Br)c2ccccc12)N1CCOCC1	0.9	-40	4	-11	-1	i	-1	-28	5.0	-5.9
C[n+]1cccc2ccc3c(c21)OC(N)=C(C#N)C3c1ccccc1 (stereo not drawn)	-2.4	-7	-1	-4	-20	i	4	10	2.5	8.4

# Record cards, as listed above.
# Profile of COC(C/C=C/[C@H](O)[C@@H](C)OCc1ccccc1)OC : AF4-AF9 inh = 5.7; Ecoli rRNA inh OD600 = 3; Calb FLC = 4; Beta cell apopt = 2; ALR H2O2 inh = 1; FGF22 binding = i; T cruzi repl = 2; Ecoli rRNA inh = 4; RanGTP-Imp inh = 5.7; Ecoli rRNA inh RFP = 2.1
# Profile of C[n+]1cccc2ccc3c(c21)OC(N)=C(C#N)C3c1ccccc1 (stereo not drawn) : AF4-AF9 inh = -2.4; Ecoli rRNA inh OD600 = -7; Calb FLC = -1; Beta cell apopt = -4; ALR H2O2 inh = -20; FGF22 binding = i; T cruzi repl = 4; Ecoli rRNA inh = 10; RanGTP-Imp inh = 2.5; Ecoli rRNA inh RFP = 8.4

# Further results
structure	AF4-AF9 inh	Ecoli rRNA inh OD600	Calb FLC	Beta cell apopt	ALR H2O2 inh	FGF22 binding	T cruzi repl	Ecoli rRNA inh	RanGTP-Imp inh	Ecoli rRNA inh RFP
Cc1cc(C)nc(-n2ncc3c2CC(c2ccc(C(C)C)cc2)CC3=O)n1 (stereo not drawn)	0.4	-6	16	-2	-5	i	8	-3	-0.9	-0.5
O=S1(=O)CCOCCN1Cc1ccc(Cl)cc1Cl	/	/	-13	-8	2	/	-19	/	-0.2	/
CCNC(=O)CCC(=O)Nc1cc(Cl)ccc1C	/	/	-7	-2	1	/	-16	/	0.7	/
Cc1ccc(S(=O)(=O)NCC(=O)OCC(=O)Nc2cccc(S(=O)(=O)N3CCOCC3)c2)cc1	3.9	-6	/	-4	-2	i	/	-1	/	2.6
COc1cccc(C(=O)CC(=O)C(=O)Nc2ccc([N+](=O)[O-])cc2C)c1	1.6	-2	-3	1	7	i	2	-4	-3.3	8.2
CCc1cc2c(=O)c(-c3nc4ccccc4n3C)coc2c(CN2CCOCC2)c1O	-2.4	6	-5	-1	-9	i	-7	9	4.7	1.2
Cc1ccc(-n2nc3c(=O)n(CCCC(=O)N4CCC(C)CC4)nc(C)c3c2C)cc1	-0.9	-8	-2	-15	-5	i	4	-5	0.6	3.2
CCN(CC)C(=O)N1CCN(c2c([N+](=O)[O-])c(=O)oc3ccccc23)CC1	0.1	15	/	2	0	i	/	3	/	1.1
Cc1cccnc1CCNC(=O)CCc1nnc(CCc2ccccc2)o1	-1.2	15	-2	-4	-2	i	-8	2	8.7	8.1
Cc1ccc(CNC(=O)C23CN(Cc4ccccc4)CC2C(c2cccc([N+](=O)[O-])c2)=NO3)cc1 (stereo not drawn)	0.7	/	11	3	-7	i	25	/	0.4	/
CC(C)c1ccc(/C=C/C(=O)N2CCOCC2)cc1	0.4	-5	30	-14	34	i	-8	9	-1.0	10.0

# Some of the compounds tested, so the mix of outcomes need not match the whole.
